# Screening data as filed in PubChem BioAssay.
# Vif-A3G inh – blocks the Vif interaction with human APOBEC3G. AID 602310. Potency, µM (doses to about 46.1 µM), without a hit: at the highest dose activity, negative = active, most hits filed as inhibitors. Q9HC16. HeLa A3G-eYFP + Vif (tagged APOBEC3G with the HIV-1 protein that degrades it), YFP fluorescence, overnight. actives 0.076% (n = 410,000);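 also: potency is read from the fitted curve at half-maximal effect; % is scaled to controls: 0 for no effect and ±100 for the full control effect; nearly all actives have a fitted effect of over 60% in size; hits raise eYFP signal because A3G escapes Vif-driven loss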
# Target sequence (Q9HC16 whole entry, looked up): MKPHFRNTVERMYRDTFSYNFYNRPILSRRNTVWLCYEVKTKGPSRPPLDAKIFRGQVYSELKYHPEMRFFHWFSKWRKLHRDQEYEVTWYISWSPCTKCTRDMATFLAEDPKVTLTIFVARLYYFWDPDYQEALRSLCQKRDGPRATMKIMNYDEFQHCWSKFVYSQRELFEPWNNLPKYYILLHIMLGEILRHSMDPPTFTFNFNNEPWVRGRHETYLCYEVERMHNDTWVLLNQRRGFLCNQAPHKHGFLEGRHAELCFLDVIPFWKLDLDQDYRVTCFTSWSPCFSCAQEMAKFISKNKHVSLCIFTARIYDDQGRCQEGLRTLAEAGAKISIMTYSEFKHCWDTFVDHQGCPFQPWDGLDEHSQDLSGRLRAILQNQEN
#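 HeLa cells stably expressing Vif and C-terminally eYFP-tagged A3G, seeded overnight at 37 deg C, then exposed to compound by pintool overnight at 37 deg C. Rise in yellow fluorescence (Ex 488/Em 500-530, Acumen) marks blocked Vif-driven A3G degradation.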
# D1 antagonist – antagonists of human D1 dopamine receptor; HEK293 TREx D1 cells, calcium flux, dopamine EC80; stronger effect = lower value; actives 3.2% (n = 360,000); P21728; activity change, negative = inhibition, % at 10 µM; in the data active = activity change below about -30%; also: % is scaled to controls: 0 for no effect and ±100 for the full control effect
#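 Kinetic fluorescence of a calcium dye serves as the read-out. D1-expressing Hek293 Trex cells, induced overnight at 30 C, are exposed to compound for 180 s before an EC80 dopamine addition, then read 180 s further.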
# Vif-APOBEC3F blk – inhibitors of Vif-A3F interaction; AID 602313; actives 0.2% (n = 390,000); Potency, µM (highest dose often 46.1 µM), for the others: top-dose activity, negative = active; HeLa A3F-eYFP + Vif (tagged APOBEC3F with the HIV-1 protein that degrades it), YFP fluorescence increase; also: potency is read from the fitted curve at half-maximal effect; % of control where 0% means no effect; nearly all actives have a fitted effect of over 65% in size
#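 Fluorescence increase (Ex 488/Em 500-530) after overnight compound treatment at 37 deg C flags inhibition of Vif-driven A3F-eYFP loss in stable HeLa A3F-eYFP/Vif cells seeded overnight beforehand.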
# Glioma ERSR ind – ER stress response induction in glioma | U87-MG GRP78 promoter luciferase reporter, 16 h | Potency, µM, for inactives: top-dose activation, usual class: activators | actives 0.02% (n = 420,000); also: potency is read from the fitted curve at half-maximal effect; series mostly up to about 76 µM; % of control where 0% means no effect; nearly all actives have a fitted effect of over 35% in size
#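 Stably transfected U87-MG human glioma cells carrying a GRP78-based luminescent sensor were seeded at 1000 cells/well, pin-dosed with compounds and incubated 16 h. Luciferase reagent was then added, and end-point luminescence was read after 10 min at room temperature.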
# D1 PAM – enhances dopamine response at the human D1 receptor. HEK293 TREx D1 cells, calcium flux, dopamine EC20 potentiation. potentiation, % at 10 µM. actives 0.036% (n = 360,000); in the data active = potentiation above about 30%; also: 0% is about no effect
# D2 potentiator – positive allosteric modulators of human D2 dopamine receptor. AID 485347. potentiation, % at 10 µM. P14416. HEK293 T-REx D2, calcium flux, EC20 dopamine potentiation. actives 0.34% (n = 340,000);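 active = potentiation over 3 SD above the plate norm, cut at about 30% in these data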; also: 0% is about no effect
# Target sequence (P14416 whole entry, looked up): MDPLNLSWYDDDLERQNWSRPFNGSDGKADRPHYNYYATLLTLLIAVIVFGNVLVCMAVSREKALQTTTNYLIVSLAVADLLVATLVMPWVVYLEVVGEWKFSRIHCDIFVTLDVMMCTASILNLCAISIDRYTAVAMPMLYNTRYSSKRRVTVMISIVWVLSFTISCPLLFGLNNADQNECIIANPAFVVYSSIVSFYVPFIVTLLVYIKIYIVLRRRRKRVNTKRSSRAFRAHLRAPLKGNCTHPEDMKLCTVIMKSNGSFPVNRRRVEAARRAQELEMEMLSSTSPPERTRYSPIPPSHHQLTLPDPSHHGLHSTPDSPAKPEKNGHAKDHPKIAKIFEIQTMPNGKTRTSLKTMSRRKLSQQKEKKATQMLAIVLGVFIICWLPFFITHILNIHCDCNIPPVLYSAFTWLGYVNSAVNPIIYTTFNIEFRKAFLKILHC
#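 Using a no-wash calcium dye in inducible, force-coupled HEK293 Trex cells expressing D2, we tracked fluorescence each second for 180 s after compound, then for 180 s after EC20 dopamine to detect augmented signalling.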
# D1 ag – human D1 receptor agonism; actives 1% (n = 360,000); HEK293 T-REx D1 cells, calcium flux, agonist mode; AID 504660; activation, % at 2 µM; P21728; in the data active = activation above about 30%; also: 0% is about no effect
#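 Tetracycline-induced HEK293 TREx D1 cells, force-coupled to calcium signalling, were dye-loaded with a no-wash calcium kit. Compound was pin-added after a 10 s baseline. Fluorescence was read kinetically at 1 cycle/s for 180 s, with calcium rises flagged as agonism.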
# * hit, by the source's call; ? = inconclusive; nt = no result given. Unless noted, calls follow the shape of the dose curve; as a rule, active = well fitted curve in the direction sought with a large enough effect; inconclusive = small, poorly fitted or top-dose-only effect, or another doubt; inactive = no such curve, though single readings can be large; an effect the other way counts as inactive or inconclusive. These rows are one share of the data (hit frequency here may not be typical).
molecule	Vif-A3G inh	D1 antagonist	Vif-APOBEC3F blk	Glioma ERSR ind	D1 PAM	D2 potentiator	D1 ag
O=C1C2ON(c3ccc(Cl)cc3)C(c3ccco3)C2C(=O)N1c1ccccc1 (configuration not stated)	1%	-11	1%	0%	-4	12	9
CCN(C(=O)c1cc2c(=O)n3cccc(C)c3nc2s1)C1CCCCC1	2%	-18	-8%	2%	-1	11	1
CCCCC(=O)OCC(=O)Nc1cccc(S(=O)(=O)NC2=NCCCCC2)c1	0%	-32*	5%	-2%	-5	2	2
CCc1nnc(SCC(=O)Nc2cc(OC)ccc2OC)nc1CC	1%	-8	-3%	-2%	-3	-3	1
Cc1ccccc1OCC(=O)Nc1cccc(S(=O)(=O)NC2=NCCCCC2)c1	0%	-8	-8%	-3%	0	0	8
CCN(CC)CCCn1c(=S)[nH]c2ccc(Cl)cc2c1=O	0%	3	-8%	-2%	2	-10	0
Cc1nn2c(-c3ccccc3)ccnc2c1-c1ccccc1	-9%	7	-2%	5%	-3	0	1
CC(=O)NC(CSc1cc(C)nc2ccc(Br)cc12)C(=O)O (configuration not stated)	-1%	0	3%	2%	8	-9	4
CCc1nc(NCCc2ccccn2)c2nnn(Cc3ccccc3F)c2n1	2%	11	-1%	-4%	4	nt	5
O=c1c2oc3ccccc3c2n(Cc2cccc(F)c2)c(=O)n1Cc1ccco1	0%	1	4%	-3%	5	2	3
COc1ccc(C(c2nnnn2C2CCCC2)N2CCc3ccccc3C2)cc1OC (configuration not stated)	-9%	4	0%	12%	3	9	3
CCc1cc2c(cc3c(=O)n(CCCC(=O)NCc4cccc(Cl)c4)ncn32)s1	-3%	-25	-19%	-1%	1	7	2
COc1ccc(Cn2ccc3nc(C)c(C(=O)Nc4ccc(C)c(F)c4)cc3c2=O)cc1	-1%	-7	2%	1%	-5	-7	2
CCCNC(=O)CSc1nc2ccccc2nc1Cc1ccc(Cl)cc1	6%	-6	3%	-2%	-2	-3	0
CC(C)Cc1nc(SCC(=O)NCC2CCCO2)c2c(=O)n(C)c(=O)n(C)c2n1 (configuration not stated)	-11%	-92*	0%	2%	-14	-16	3
CC(=O)NCc1nnc2c3ccccc3c(-c3ccccc3)nn12	1%	nt	0%	0%	-2	-10	-1
Brc1ccc(CSc2ccc3nnc(-c4cccnc4)n3n2)cc1	-12%	-11	2%	-3%	-5	3	3
COc1ccccc1-n1c(-c2cc(-c3ccc(F)cc3)n[nH]2)n[nH]c1=S	-3%	-1	?	5%	-1	-1	2
CCn1c(COc2ccc(C)cc2)nnc1SCC(=O)NNC(=O)c1ccc(OC)cc1	0%	1	8%	3%	0	6	-3
Cc1ccc(C)c(SCC(=O)Nc2cccc(S(=O)(=O)NC3=NCCCCC3)c2)c1	1%	-17	4%	-5%	-3	6	7
O=[N+]([O-])c1ccc(-c2nc(NCC3CCCO3)c3ccccc3n2)cc1 (configuration not stated)	0%	-7	0%	-2%	-6	7	2
CCOc1ccccc1C(=O)Nc1ccc(S(=O)(=O)Nc2ncccn2)cc1	8%	0	0%	-1%	2	7	0
Cc1cc2c(cc1S(=O)(=O)N(C)c1ccccc1)NC(=O)CO2	-1%	5	4%	-3%	-4	4	6
Cc1cc(-c2ccccc2)c2c3c(cn2n1)c(=O)n(C)c(=O)n3C	-1%	-24	6%	-2%	-6	nt	4
CN(C)c1oc(/C=C/c2ccccc2)nc1C#N	-26%	-13	-17%	6%	-7	-1	1

# The last 2 entries of the part above open the next one:
molecule	Vif-A3G inh	D1 antagonist	Vif-APOBEC3F blk	Glioma ERSR ind	D1 PAM	D2 potentiator	D1 ag
Cc1cc(-c2ccccc2)c2c3c(cn2n1)c(=O)n(C)c(=O)n3C	-1%	-24	6%	-2%	-6	nt	4
CN(C)c1oc(/C=C/c2ccccc2)nc1C#N	-26%	-13	-17%	6%	-7	-1	1
O=C(N/N=C/c1ccc([N+](=O)[O-])cc1)c1ccc(NS(=O)(=O)c2cccs2)cc1	-10%	-11	-2%	0%	-4	8	1
Nc1cccc2c1C(=O)N(C(=O)/C=C/c1cccc(Br)c1)C2=O	0%	2	?	1%	-3	6	5
CCCNS(=O)(=O)c1cc(CN2C(=O)c3cccnc3C2=O)ccc1OC	0%	-12	-13%	-1%	-2	3	2
O=C(CSc1ccc2nnc(-c3cccs3)n2n1)N1CCCC1	-1%	1	3%	-1%	4	3	2
N#CC(c1ccccc1F)(c1ncc(C(F)(F)F)cc1Cl)N1CCOCC1 (configuration not stated)	1%	nt	-15%	-1%	nt	nt	nt
Cc1ccc(CNCc2cc3c(C(C)(C)C)nn(-c4ccccc4)c3[nH]c2=O)cc1	-7%	19	-13%	-4%	1	5	1
CCCCN=CC1=C(O)C(C(=O)OC)C(C)(C)CC1=O (configuration not stated)	1%	3	-5%	5%	-9	-3	2
Cc1ccc(C2=NNC(C(O)C(O)C(O)CO)S2)cc1 (configuration not stated)	-1%	-12	3%	4%	-1	0	0
CCCCC(CC)CNC(=O)CC1Nc2c3ccccc3nc(=S)n2C1=O (configuration not stated)	1%	9	6%	1%	-1	8	-1
Cn1c(=O)c2sccc2n2c(CCC(=O)NCc3ccccc3)nnc12	-4%	2	0%	-3%	0	-1	3
CC1(C)Cc2nc3sc4c(=O)[nH]cnc4c3cc2CS1	-1%	2	-14%	1%	10	-3	2
COc1ccc2c(C)cc(SCC(=O)Nc3ncc(Cl)cc3Cl)nc2c1	-1%	-4	-1%	-4%	-5	5	1
COCC(=O)Nc1sc2c(c1C(=O)OC)CCC(C)C2 (configuration not stated)	0%	-3	-13%	0%	-7	16	2
COc1ccc(CN2C(=O)c3cccnc3C2=O)cc1S(=O)(=O)NCc1ccc(C)cc1	0%	-13	2%	0%	-4	-8	1
COc1cccc(OCCNC(=O)CSc2ccc(C(F)(F)F)cc2[N+](=O)[O-])c1	-1%	-28	-3%	-5%	-12	10	2
Cc1nn(-c2ccc(C(=O)O)cc2)c(=O)c2ccccc12	0%	-2	0%	-2%	-1	13	4
N#Cc1c(C(F)(F)F)cc(-c2cccs2)nc1SCC(=O)Nc1cccc(Cl)c1	-17%	14	?	-3%	-4	-5	47*
Cc1ccc(Cc2nc3ccccc3nc2SCC(=O)N2CCN(c3ccccc3)CC2)cc1	0%	3	-26%	5%	-1	3	0
COc1ccc(C)cc1NC(=O)NC1CCN(Cc2ccccc2)CC1	1%	2	-4%	2%	-4	-26	7
CCC(=O)N(CCC(c1ccccc1)c1ccco1)Cc1cccs1 (configuration not stated)	5%	-24	-3%	2%	-5	9	2
CCOC(=O)c1cc(-c2ccccc2)sc1NC(=O)COC(=O)c1ccc(Cl)c(S(N)(=O)=O)c1	-1%	7	12%	-3%	3	-2	3
Cc1ccc(C)c(NC(=O)CSc2nncn3c2cc2sccc23)c1	0%	-7	-2%	-2%	-2	-4	3
O=C(c1ccco1)N(CCC(c1ccccc1)c1ccco1)Cc1ccccc1 (configuration not stated)	-8%	-7	-5%	-3%	-1	0	7
Cc1cc2ccccc2n1-c1ccc(C(=O)N2CCC(C(=O)NCc3ccc(F)cc3)CC2)s1	-7%	-22	-10%	-3%	-5	-4	9
CC(C)C(=O)Nc1cccc(C(=O)Nc2nncs2)c1	-1%	5	-8%	-5%	-4	10	1

# Continuation.
molecule	Vif-A3G inh	D1 antagonist	Vif-APOBEC3F blk	Glioma ERSR ind	D1 PAM	D2 potentiator	D1 ag
Cc1ccc(S(=O)(=O)NCC(c2ccccc2)N2CCN(CCC#N)CC2)cc1 (configuration not stated)	1%	-7	3%	0%	3	-6	2
CC1C(O)=C(c2nc3ccccc3[nH]2)C(=N)N1c1ccccc1 (configuration not stated)	?	7	-9%	3%	3	nt	0
Cc1sc2nc(CN3CCCCC3)nc(N3CCN(C(=O)c4ccco4)CC3)c2c1C	-14%	11	-2%	-1%	1	13	2
Cc1ccc(C(=O)Nc2nnc(Cc3ccccc3)s2)cc1	0%	-10	3%	2%	-7	-12	2
CC(C)=CCCC(C)CN1CCC(O)CC1 (configuration not stated)	1%	-24	-3%	-4%	-8	2	3
CC(=O)N/C(=C\c1ccccc1)C(=O)OC(C)C(=O)Nc1ccccc1F (configuration not stated)	3%	22	-2%	-1%	-3	3	2
COc1ccc(C(=O)Nc2nc3cc4c(cc3s2)OCO4)c(OC)c1	-5%	1	0%	6%	-2	9	3
CC1(C)CC2CN(C(=O)Cc3ccccc3)C(C)(C2)C1 (configuration not stated)	1%	-1	-1%	1%	0	7	2
COC(=O)/C=C/c1ccc(OC(=O)OC)c(OC(=O)OC)c1	-6%	3	11%	1%	0	-9	1
CCN(CC)S(=O)(=O)c1cccc(-c2cn3cccnc3n2)c1	1%	3	1%	-7%	6	-4	1
Cc1ccc(S(=O)(=O)c2nnn3c2nc(NCc2ccc(F)cc2)c2sccc23)cc1	-2%	15	2%	-5%	-4	-2	4
Cc1c(N=C2NC(=O)C(CC(=O)Nc3ccccc3)S2)c(=O)n(-c2ccccc2)n1C (configuration not stated)	5%	-1	1%	-4%	0	5	1
CC(C)Oc1cccc(C(=O)NC(=S)Nc2ccc3c4c(cccc24)CC3)c1	-10%	-7	-8%	-4%	-3	1	3
O=C(CN1CCN(Cc2ccc(Cl)cc2)CC1)N/N=C/C=C/c1ccccc1[N+](=O)[O-]	2%	-10	1%	-3%	-6	-15	19
COc1cc2nc(NC(=O)c3ccc(Cl)cc3)sc(=O)c2cc1OC	0%	2	-5%	-2%	-4	-7	1
CCCOc1ccc(C(CC(=O)O)NC(=O)c2sc3ccccc3c2Cl)cc1 (configuration not stated)	-3%	-9	-13%	1%	-2	29	15
Cc1cc(SCC(=O)N2CCC(c3noc4ccc(F)cc34)CC2)nc2ccccc12	-6%	1	?	-2%	-3	nt	5
Cc1nc(N2CCN(C(=O)c3ccco3)CC2)c2c3c(sc2n1)CCCC3	-2%	34	3%	-2%	-5	10	-1
Cn1c(=O)c2c(ncn2Cc2nnc(N)s2)n(C)c1=O	0%	9	3%	-5%	-3	0	10
NC(=O)C1CCN(Cc2nnnn2Cc2ccco2)CC1	-3%	9	-9%	-4%	-2	-5	7
Cc1cccc(/C=C2/Sc3ccc(C(=O)N4CCOCC4)cc3NC2=O)c1	-5%	-5	8%	-5%	4	2	18

# Arranged by value in D1 ag (highest first): some entries from above
canonical_smiles	D1 ag
CCCOc1ccc(C(CC(=O)O)NC(=O)c2sc3ccccc3c2Cl)cc1 (configuration not stated)	15
NC(=O)C1CCN(Cc2nnnn2Cc2ccco2)CC1	7
CC(C)=CCCC(C)CN1CCC(O)CC1 (configuration not stated)	3
Cc1ccc(S(=O)(=O)NCC(c2ccccc2)N2CCN(CCC#N)CC2)cc1 (configuration not stated)	2
COc1cc2nc(NC(=O)c3ccc(Cl)cc3)sc(=O)c2cc1OC	1
CC1C(O)=C(c2nc3ccccc3[nH]2)C(=N)N1c1ccccc1 (configuration not stated)	0
